Mtb H37Rv: M. tuberculosis H37Rv growth inhibitors, H37Rv strain (AID 1626); M. tuberculosis H37Rv growth inhibition; higher % means a stronger effect; one-dose inhibition, % at 10 µM; IC50 in µM for titrated hits; 220,000 tested, 0.95% active;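 active = confirmed in a dose series; inconclusive = inhibition above 80% but not taken into the dose series; inactive = below 80% or under 30% at every dose of the series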;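 also: bacteria incubated seven days before Alamar blue readout; 0% = bacteria only wells and 100% = bacteria with antibiotic wells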
YopH inh: blocks Yersinia enterocolitica YopH tyrosine phosphatase. 140,000 tested, 0.16% active. inhibition, %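 (about 10 µM by stock and volumes)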. fluorescence Ex485/Em525. AID 898;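 active = inhibition of 50% or more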;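 also: controls were vehicle for no effect and minimum signal wells for full effect; inactives centre near -20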
Arbovirus inh: blocks arbovirus infection. inhibition, % at 10 µM. 200,000 tested, 0.37% active. arbovirus infection cell-based antiviral screen;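 active = inhibition from about 30%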;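 also: bluetongue infection of BSR cells; cell survival read as ATP light after 72 h; 0% = infected wells without compound and 100% = uninfected wells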
RecA splice inh: Mtb RecA intein splicing inhibition. inhibition, %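 (about 9 µM by stock and volumes)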. AID 2221. P9WHJ3. cell-free RecA intein splicing, fluorescence. 290,000 tested, 0.75% active; in the data active = inhibition above about 30%; inconclusive = no clear call, values can overlap the other calls;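 also: 0% = vehicle wells and 100% = reference inhibitor control wells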
Target sequence (P9WHJ3 whole entry, looked up, canonical isoform): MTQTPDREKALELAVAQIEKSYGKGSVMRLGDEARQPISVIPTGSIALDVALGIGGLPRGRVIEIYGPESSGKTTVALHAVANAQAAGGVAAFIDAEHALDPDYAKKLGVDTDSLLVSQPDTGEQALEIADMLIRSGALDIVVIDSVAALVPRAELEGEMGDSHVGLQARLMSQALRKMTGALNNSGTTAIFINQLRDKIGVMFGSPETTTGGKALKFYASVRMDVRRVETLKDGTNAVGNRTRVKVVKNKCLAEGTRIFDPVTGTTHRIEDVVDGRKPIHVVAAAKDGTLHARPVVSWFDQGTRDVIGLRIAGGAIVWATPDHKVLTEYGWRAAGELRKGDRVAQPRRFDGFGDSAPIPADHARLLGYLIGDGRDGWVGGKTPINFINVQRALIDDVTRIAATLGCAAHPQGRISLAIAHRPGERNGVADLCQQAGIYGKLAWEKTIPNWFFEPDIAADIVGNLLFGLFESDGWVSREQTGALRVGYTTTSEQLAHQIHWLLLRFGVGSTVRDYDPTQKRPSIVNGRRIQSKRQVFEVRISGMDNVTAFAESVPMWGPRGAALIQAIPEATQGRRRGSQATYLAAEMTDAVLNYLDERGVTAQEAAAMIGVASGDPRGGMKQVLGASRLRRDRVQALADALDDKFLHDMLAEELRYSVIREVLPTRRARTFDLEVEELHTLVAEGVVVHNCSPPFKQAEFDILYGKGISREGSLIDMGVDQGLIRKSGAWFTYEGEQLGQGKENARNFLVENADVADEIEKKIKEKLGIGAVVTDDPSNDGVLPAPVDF
Mtb betalactam: beta-lactam sensitization of Mtb H37Rv; M. tuberculosis H37Rv growth with meropenem, percent inhibition; hits of this screen are not shown here; inhibition, % at 25 µM; 330,000 tested, 0.27% active; AID 434955;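 active = about 74% or more and at least 40 points above the plate without the antibiotic, then above 30% in a dose series; inconclusive = first-round hits that could not be retested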;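 also: growth measured after seven days incubation then overnight dye step; 0% = bacteria only wells and 100% = bacteria with antibiotic; twin plates without the antibiotic show which effects depend on it; some results filed as inactive read as strong as hits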
Arbovirus inh repeat: further read-out of Arbovirus inh, marked with its call; inhibition, %; measured here: 10K subset replicate screen; many hits read low in the repeat;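 first of two repeat runs on a subset; 0% = infected and 100% = uninfected wells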
Active calls of the source: *; ? = inconclusive; . = no result given.

SMILES	Mtb H37Rv	YopH inh	Arbovirus inh	RecA splice inh	Mtb betalactam	others
CC(=O)COc1ccc2cc(-c3ccccc3)c(=O)oc2c1	.	.	.	-4.5	-2
CSc1cccc(NC(=O)CN(Cc2ccc(Cl)cc2)S(C)(=O)=O)c1	6%	-26	5	2.8	11
Cc1ccc(-n2c3nc(=O)[nH]c(=O)c-3cc3cc([N+](=O)[O-])ccc32)cc1C	45%	-33	25	.	7
O=C1c2ccccc2C(=O)c2c1ccc1c(=O)n(C3CCCCC3)[nH]c21	5%	-21	-28	9.0	14
c1cc(C2N3CCCN2CC3)ccn1 (stereo unspecified)	.	.	.	-0.4	2
CN1CCc2nc(N)c(C#N)c(-c3ccccc3)c2C1	-10%	-27	10	-0.1	1
O=S1(=O)CCOC[C@H](CC2CCCCC2)N1Cc1cccc(C(F)(F)F)c1	.	.	.	-0.8	2
O=C(c1ccc(S(=O)(=O)N2CCCCCC2)cc1)N1CCC(CN2C(=O)c3cccc4cccc(c34)C2=O)CC1	.	-47	16	2.5	88
Cc1cnc(NC2=NCCC2)s1	2%	.	6	-1.1	41
CCN1CCN(Cc2nc3c(c(=O)n(C)c(=O)n3C)n2Cc2cccc3ccccc23)CC1	-8%	-17	-5	0.4	1
CCOc1cccc(/C=C/C(=O)O)c1	5%	.	3	0.9	3
Cc1ccc(S(=O)(=O)N2C3C=CC(C3)C2C(=O)O)cc1 (stereo unspecified)	6%	-36	13	2.4	0	Arbovirus inh repeat=-2
CC(=Nc1ccccc1)C1=C(O)CSC1=O	-1%	-12	0	0.7	5
O=C1c2ccccc2NC(c2cccc([N+](=O)[O-])c2)N1O (stereo unspecified)	.	.	.	-5.0	-7
COc1ccc(CC(=O)N2CCc3ccccc32)cc1	2%	-20	3	-0.1	2
Cc1cc(C)cc(OCCNC(=O)c2ccc(Br)cc2)c1	.	.	.	2.7	8
Cc1ccc(C(=O)Oc2oc(-c3ccco3)nc2C=Nc2ccc(Cl)cc2)cc1	-5%	1	1	0.2	0
O=C(NC(Cc1c[nH]c2ccccc12)C(=O)O)c1ccc(F)cc1 (stereo unspecified)	-2%	.	5	-1.4	-5
CCn1c(C(C)C)n[nH]c1=S	-4%	.	5	-0.1	0
Cc1no[n+]([O-])c1COc1ccccc1/C=C1\NC(=S)NC1=O	1%	-1	15	1.5	0
COc1ccccc1NC(=O)Cc1nc(CCl)cs1	-4%	-28	-1	6.2	45
COC(=O)C(C(=O)Nc1cccc(Cl)c1C)C1CCCC1 (stereo unspecified)	6%	.	8	0.1	24
CCOC(=O)N1CCN(C(=O)CSc2ccc(-c3ccccc3OC)nn2)CC1	3%	.	0	4.9	-12
CCOC(=O)C(NCCc1ccccc1F)(NC(=O)CC)C(F)(F)F (stereo unspecified)	3%	-4	7	-0.7	-7
O=C(Nc1cccc(F)c1)NC1(C(=O)NCC2CCCO2)CCCCC1 (stereo unspecified)	.	.	.	-1.8	-8
Cc1ccc(C2=NC3(CCCC3)NC2=S)cc1	-2%	.	5	-2.0	0
O=C(NCCO)c1nsnc1NCCCl	3%	.	7	2.9	1
CCn1c(SCc2nc(-c3ccccc3)no2)nc2ccccc21	6%	-53	-5	4.2	67	Arbovirus inh repeat=-3
COc1cc(C(=O)NCc2cc3ccccc3n2C)cc(OC)c1OC	.	.	.	1.3	9
Cc1cccc(N2CCN(S(=O)(=O)c3cnc[nH]3)CC2)c1C	11%	-44	4	-1.4	3
O=C(c1cn(-c2ccccc2)nc1-c1cccnc1)N1CCCCC1	-5%	-27	-4	2.7	2
COc1ccc(C(=O)NC(=O)Nc2cc(C)ccn2)cc1	1%	-37	-12	2.5	9
COc1ccccc1CNC(=O)c1ccccc1OCc1ccc(F)cc1	7%	-18	-19	14	?
CCC(c1nnnn1C(C)(C)C)N1CCN(C(=O)c2ccco2)CC1 (stereo unspecified)	.	.	.	0.4	2
NS(=O)(=O)c1ccc(CNC(=O)C(Cc2ccccc2)NS(=O)(=O)c2ccccc2F)cc1 (stereo unspecified)	.	.	.	0.6	-4
COc1ccc(S(=O)(=O)c2c(O)c3ccc(C(=O)Nc4ccc(F)cc4)cc3[nH]c2=O)cc1	.	.	.	-2.5	1
O=[N+]([O-])c1cc(/C=N/n2cnnc2)ccc1N1CCCC1	-8%	.	4	0.8	2
CC(=O)c1cccc(NC(=S)NC(=O)c2cncc(Br)c2)c1	.	.	.	0.0	0
Cn1c(=O)c2sccc2n(Cc2ccccc2)c1=O	.	.	.	-2.2	3
CCN(CC)CCOC(=O)c1ccc(NC(=O)c2ccc(Cl)c(S(=O)(=O)N3CCCCCC3)c2)cc1	5%	.	3	8.8	3
O=C(NCc1ccccc1)c1ccccc1NC(=O)C1CCCCC1	.	.	.	2.3	3
CCOC(=O)N1CCN(C(=O)C2CCC(=O)N(CCc3ccccc3)C2)CC1 (stereo unspecified)	.	.	.	8.7	-14
Cc1cc(-c2cc(C(=O)NCc3ccccc3)on2)nc(NCC2CC2)n1	6%	.	.	0.9	0
CCN(Cc1ccccc1)C(=S)NC(=O)c1ccccc1Br	.	.	.	3.6	15
Clc1cccc(/C(Cc2nc3ccccc3[nH]2)=N\Nc2ccccc2)c1	?	-19	-19	16	96
COc1ccccc1OCCn1c(C)c(C=O)c2ccccc21	.	.	.	0.1	-6
COc1ccc2[nH]c3c(c2c1)CC(C)NC3=O (stereo unspecified)	.	.	.	-2.2	6
Cc1ccc(/C=C(\NC(=O)c2ccccc2)C(=O)N2CCCCC2)cc1	.	.	.	-0.5	5
Cc1cnc(-c2nnc(N(C)C(=O)C3CCCO3)s2)cn1 (stereo unspecified)	1%	-35	-2	-0.2	-6
C/C(=N\NC(=O)CN1CCCCC1)c1cccc([N+](=O)[O-])c1	.	.	.	-1.8	-6

More results.
SMILES	Mtb H37Rv	YopH inh	Arbovirus inh	RecA splice inh	Mtb betalactam	others
Cc1noc(C)c1COC(=O)c1cc2c3ccccc3n(C)c2s1	1%	-33	-2	.	11
Cc1cc(C)n(C(=O)C(C(=O)c2ccccc2)C(C)C)n1 (stereo unspecified)	1%	-26	2	2.1	5
CCOC(=O)CNC(=O)c1cc(-c2ccc3c(c2)OCCO3)oc1C	-11%	-24	1	1.0	3
CN1C(=O)CC(Sc2ccccc2C(=O)O)C1=O (stereo unspecified)	-3%	-2	5	.	-3
COc1ccc(-c2noc(CCC(=O)Nc3nc4ccccc4s3)n2)cc1	6%	-17	1	2.5	2
COc1cc(-c2noc(-c3cccs3)n2)cc(OC)c1OC	-11%	7	-1	-1.7	-2
CCSc1ncc(Cl)c(C(=O)Nc2ccccc2Cl)n1	.	.	.	0.5	4
Cc1ccc(CNC(=O)C2CCN(S(=O)(=O)N3CCOCC3)CC2)cc1	-3%	-45	6	-2.1	-8
CS(=O)(=O)Nc1ccc(C(=O)Nc2ccc3c(c2)OCO3)cc1	-6%	.	-1	0.8	-8
COc1ccc(C(=O)c2cc3cccc(OC)c3o2)cc1	8%	.	-13	6.5	22
O=C(CN1CCN(c2ncc(C(F)(F)F)cc2Cl)CC1)NCCNc1ncc(C(F)(F)F)cc1Cl	5%	5	-34	1.1	-2
C/C(=N\NC(=O)c1cccc(F)c1)c1ccc(Br)s1	?	-8	-27	1.4	98
O=C(/C=C/Nc1ccccc1Br)c1ccccn1	-1%	-16	-15	1.6	4
O=C(COC(=O)c1ccc2[nH]c3c(c2c1)CCCC3)NC1CCS(=O)(=O)C1 (stereo unspecified)	2%	.	1	-9.8	-7
COc1ccccc1N1CC(C(=O)Nc2cc(C(F)(F)F)ccc2N2CCCC2)CC1=O (stereo unspecified)	.	.	.	0.9	-2
CCOCCCNC(=S)N1CCN(C(=O)C(=O)Nc2ccc(C(=O)OC)cc2)CC1	1%	-22	-4	-1.0	-6
CCCc1cc(=O)oc2cc(C)cc(OCC(=O)NC(Cc3ccc(Cl)cc3)C(=O)O)c12 (stereo unspecified)	.	.	.	-3.2	-5
Nc1nnc(CSCc2ccc(Cl)cc2Cl)s1	5%	-19	-4	0.3	-6
CN(C)CCCNc1ncnc2scc(-c3ccccc3)c12	3%	.	-17	8.9	5
Cc1cc(C)nc(-n2nc(C)cc2NC(=O)CN2CCC(C)CC2)n1	7%	-43	5	3.1	96	Arbovirus inh repeat=-2

The list goes on, starting with the last 6 of the part before.
SMILES	Mtb H37Rv	YopH inh	Arbovirus inh	RecA splice inh	Mtb betalactam	others
COc1ccccc1N1CC(C(=O)Nc2cc(C(F)(F)F)ccc2N2CCCC2)CC1=O (stereo unspecified)	.	.	.	0.9	-2
CCOCCCNC(=S)N1CCN(C(=O)C(=O)Nc2ccc(C(=O)OC)cc2)CC1	1%	-22	-4	-1.0	-6
CCCc1cc(=O)oc2cc(C)cc(OCC(=O)NC(Cc3ccc(Cl)cc3)C(=O)O)c12 (stereo unspecified)	.	.	.	-3.2	-5
Nc1nnc(CSCc2ccc(Cl)cc2Cl)s1	5%	-19	-4	0.3	-6
CN(C)CCCNc1ncnc2scc(-c3ccccc3)c12	3%	.	-17	8.9	5
Cc1cc(C)nc(-n2nc(C)cc2NC(=O)CN2CCC(C)CC2)n1	7%	-43	5	3.1	96	Arbovirus inh repeat=-2
O=C(NNC(=O)c1ccccc1F)c1ccc2nc[nH]c2c1	.	.	.	2.1	-13
CCOC(=O)c1ccc(N2C(=O)C=C(N3CCOCC3)C2=O)cc1	.	.	.	-2.2	4
Clc1cccc(C2Nc3cccc4cccc(c34)N2)c1Cl	.	.	.	2.7	20
N#Cc1nc(-c2ccccc2F)oc1NCCN1CCOCC1	1%	-52	-4	-0.2	-2	Arbovirus inh repeat=-4
O=C1NCCCCC1NS(=O)(=O)c1cccc(C(F)(F)F)c1 (stereo unspecified)	.	.	.	-0.7	5
Cc1cc(C)n(-c2nnc3n2N=C(c2ccccc2)CS3)n1	2%	5	2	0.5	5
Cc1ccccc1C(=O)Nc1c(C(=O)N(CCN(C)C)Cc2ccco2)oc2ccccc12	.	.	.	1.4	4
CC(=O)Nc1cccc(N(C(=O)C2COc3ccccc3O2)C(C(=O)NC2CCCCC2)c2cn(C)nc2C)c1 (stereo unspecified)	1%	.	7	1.4	-3
O=c1cc(-c2ccco2)nc(-c2cccs2)o1	5%	-55	5	-0.5	12
O=C(CCNC(=O)C1CCN(S(=O)(=O)c2ccccc2)CC1)Nc1cccc(C(F)(F)F)c1	.	.	.	-0.6	1
COC(=O)c1ccccc1NC(=O)Oc1ccc(C(C)C)cc1	9%	9	18	-2.2	-9
CCOc1ccccc1NC(=O)CSc1ccc2nnc(-c3cccnc3)n2n1	11%	.	11	-0.2	-8
COC(=O)c1ccc(C)c(NS(=O)(=O)c2ccc(NC(C)=O)cc2)c1	5%	-22	-10	0.5	4
Cc1nc(-c2ccc(C(=O)O)cc2)cs1	-13%	-23	-2	-1.2	7
COc1ccc(NC(=S)N2CCCC2c2ccc(OC)c(OC)c2)cc1 (stereo unspecified)	7%	.	6	0.4	0
Cc1csc(=O)n1CCC(=O)OCC(=O)Nc1ccc(C(N)=O)cc1	.	.	.	-0.3	1
CCOc1cccc(CN2CCN(CCc3ccccc3)C(CCO)C2)c1O (stereo unspecified)	-12%	.	3	0.5	-1
CCCCNC(=S)N(CCCO)Cc1cc2cc3c(cc2[nH]c1=O)OCCO3	.	.	.	-1.7	-7
CN(C)CCCN(C(=O)c1ccc(S(=O)(=O)N2CCc3ccccc3C2)cc1)c1nc2c(F)cc(F)cc2s1	.	.	.	0.3	-2
COc1ccc(C(=O)NCCS(=O)(=O)NCc2ccc(C)cc2)cc1	.	.	.	-1.1	0

Part of the list above in order of molar mass, lowest first.
SMILES	Mtb H37Rv	YopH inh	Arbovirus inh	RecA splice inh	Mtb betalactam	others
COc1ccc(C(=O)NCCS(=O)(=O)NCc2ccc(C)cc2)cc1	.	.	.	-1.1	0
Cc1csc(=O)n1CCC(=O)OCC(=O)Nc1ccc(C(N)=O)cc1	.	.	.	-0.3	1
CCOc1cccc(CN2CCN(CCc3ccccc3)C(CCO)C2)c1O (stereo unspecified)	-12%	.	3	0.5	-1

Next part:
SMILES	Mtb H37Rv	YopH inh	Arbovirus inh	RecA splice inh	Mtb betalactam	others
Cn1c(CC(=O)Nc2ccccc2)nnc1SCC(=O)c1ccccc1	4%	11	-32	3.7	-11
CCOCCCNC(=O)C(NC(=O)c1ccc(=O)[nH]c1)c1ccccc1 (stereo unspecified)	3%	-9	8	-3.1	-11
COc1ccccc1CNCC(=O)Nc1ccccc1-n1cccc1	-7%	.	-5	0.6	2
Cc1ccc2nc(NC(=O)CSc3nc4c(c(=O)n3C)SC(C)C4)sc2c1 (stereo unspecified)	74%	-41	4	-20	37
CCOC(=O)c1cc2c(ccn2C)n1CC(=O)N1CCCC(C)C1 (stereo unspecified)	1%	-9	7	-3.0	-3

Screens (PubChem)

An excerpt; rates above refer to the full screens.
